Sa helicase inh: S. aureus DNA helicase inhibition; 0.05% of 120,000 active; inhibition, %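 (tested at about 80 µM)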; AID 485395; purified S. aureus helicase, fluorescence unwinding assay; about half of the hits fall short of the stated cut;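 active = both duplicates at 50% or more, or one of them with a favoured structure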;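 note: 0% = mean of negative control wells and 100% = mean of positive control wells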
MgrA-DNA mod: modulators of Staphylococcus aureus MgrA DNA binding. fluorescence polarization. 0.13% of 84,000 active. inhibition, %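 (about 10 µg/mL by stock and volumes)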;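 active = above 50% in either of two replicates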;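 note: 0% = protein plus DNA without compound and 100% = DNA alone without protein; higher means less MgrA bound to DNA so lower polarization; one replicate is shown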
* = called active by the depositor; . = no result given; & = joins results of further samples. These rows are one share of the data (hit frequency here may not be typical).

SMILES	Sa helicase inh	MgrA-DNA mod
CCn1c2ccccc2c2cc(NC(=O)CCC3CCCCC3)ccc21	8	3.8
CCc1ccc(C(=O)COC(=O)c2nc(-c3ccccc3)oc2C)cc1	11	.
CCn1c(-c2ccccc2)c[nH]c1=S	4	.
O=C1/C(=C/c2ccccc2)CCC/C1=C\c1ccccc1	.	-1.3
O=C(OCC(=O)c1c[nH]c2ccccc12)c1ccc(-n2cnnn2)cc1	-8	.
C(=N\c1cc(-c2ccccc2)nn1-c1ccccc1)/c1ccccc1	-91	-2.8
O=C(Nc1cccc(-c2nc3ccccc3[nH]2)c1)C1CC(=O)N(Cc2ccco2)C1 (stereo unspecified)	-9	.
CN(Cc1c(O)ccc2c(=O)c(-c3ccccc3)coc12)C1CCCCC1	4	.
c1csc(-c2nc3nonc3c3nc4ccccc4n23)c1	-5	-3.0
COc1ccc(/C=N/O)cc1OC1CCCC1	.	-1.2
COC(=O)c1cccc(NC(=O)COc2ccccc2)c1	16	-1.8
Cc1cc2c(c(C)c1Cl)CN(Cc1ccc3c(c1)OCO3)CO2	-30	.
CN1CCC(NC(=O)c2ccncc2)CC1	6	0.9
CC(C)C(C(=O)NN1C(=O)/C(=C/c2ccccn2)N=C1c1ccccc1)c1ccc(Cl)cc1 (stereo unspecified)	-23	-1.6
O=C(O)CC12CSc3[nH]c(=O)sc3C1c1ccccc1OC2=O (stereo unspecified)	2	0.3
O=C(Nc1cccnc1)c1ccc(-c2cc(Cl)ccc2Cl)o1	-18	.
COC(=O)c1c(C)cc(C)c2c1CC(C)(C)C2=O	.	-1.3
O=C(O)c1c[nH]c2ccc(S(=O)(=O)N3CCCC3)cc2c1=O	-2	0.1
COC(=O)Nc1ccc(S(=O)(=O)N2CCCc3cccc(O)c32)cc1	7	.
COC(=O)c1ccc(-c2nc(O)c3c4ccccc4c(=O)[nH]n23)cc1	-1	.
COc1nc(C)nc(C)c1Oc1ccc(Cl)cc1Cl	.	-1.8
O=C(O)/C=C\C(=O)c1ccc(O)cc1	.	0.1
COCC(C)NC(=O)c1ccco1 (stereo unspecified)	15	-1.6
O=C(NC1CCCC1)c1c(O)c2cccc3c2n(c1=O)CC3	3	-4.1
CC12CN(C(=O)c3cccs3)CC(C)(CN(C(=O)c3cccs3)C1)C2=O	-17	.
COc1ccc2c(CC(=O)O)coc2c1	.	-1.4
CCC(C)NC(=O)CSc1ccc(Cl)cc1 (stereo unspecified)	-9	0.5
CC1CC1C(=O)OCC(=O)Nc1ccccc1C(F)(F)F (stereo unspecified)	-16	-2.2
CSc1ccc(CN(C)CC(=O)NC2(C#N)CCCC2)cc1	-10	.
CCN(CC(=O)Nc1ccccc1OC)C(=O)c1ccc(-n2cccn2)cc1	0	.
COc1ccc2c(c1)NC(c1cc(Cl)cc(Cl)c1O)c1cccn1-2 (stereo unspecified)	-28	.
Cc1sc(-n2cccc2)c(C#N)c1C	10	-1.8
Clc1ccc(C2=CC(c3cccs3)n3c(nc4ccccc43)N2)cc1 (stereo unspecified)	-1	.
O=C(NC1CCc2ccccc21)c1cn(-c2ccc(F)cc2)nn1 (stereo unspecified)	-21	.
COc1cc(/C=C/C(=O)N2CCc3ccccc3C2)cc(OC)c1OC	11	-1.5
CCC(=O)N1c2ccccc2NC2=C(C(=O)CC(C)(C)C2)C1c1ccccn1 (stereo unspecified)	7	-3.0
CCc1c(C#N)c(N)nc(SCC(=O)c2ccc(Cl)c(Cl)c2)c1C#N	.	0.6
CCNc1nc(NCC)n2c(=S)n(CN3CCOCC3)nc2n1	5	.
O=C(CNc1cccc(C(F)(F)F)c1)NN1C(=O)NC2(CCCCC2)C1=O	-11	.
CN(C)c1ccc(Nc2nc(-c3cccnc3)nc3ccccc23)cc1	12	1.6
CC1(C)CN(c2cccc(-c3ccnc4ncnn34)c2)C1=O	.	-1.5
O=C(O)COc1ccc2oc(=O)c3c(c2c1)CCC3	20	.
O=C(COc1ccccc1)Nc1sc2c(c1C(=O)NCC1CCCO1)CCCC2 (stereo unspecified)	-15	.
N#Cc1c(N)nc(Sc2ccc(Cl)cc2)c(C#N)c1-c1cccs1	-4	.
O=C(O)c1cccnc1SC1CC(=O)N(c2ccc(OC(F)(F)F)cc2)C1=O (stereo unspecified)	.	-0.4
Nc1nc2nc(N3CCOCC3)[nH]c2c(=O)[nH]1	-16	.
CCN(CC)OC(=O)c1c(-c2c(Cl)cccc2Cl)noc1C	.	0.7
CC1(C)Cc2ccccc2C(CSc2nnc3c(n2)[nH]c2ccccc23)=N1	10	0.5
COc1ccc(C2CC(c3ccccc3)=NN2C(=O)c2ccccc2)cc1 (stereo unspecified)	.	0.0
CCOC(=O)c1ccc(N2C(=O)CC(NC(C)(C)C)C2=O)cc1 (stereo unspecified)	9	-1.3
O=C(CNC(=O)c1ccccc1)NCC1COc2ccccc2O1 (stereo unspecified)	6	.
O=C1N(Cc2ccccc2)C(c2cccc(F)c2)C1(F)F (stereo unspecified)	-17	.
COC(=O)C1=CN(C(C)C)C=C(C(=O)OC)C1c1ccc2c(c1)OCO2	9	.
O=c1oc(-c2cccc(Br)c2)nc2scc(-c3ccccc3)c12	.	-1.2
C/C(=C\C(=Nc1ccccc1O)c1ccccn1)c1ccccn1	6	-1.2
CN(CCNS(=O)(=O)c1ccc(-c2cc(C(F)(F)F)no2)s1)C1CCCCC1	9	.
COC(=O)C1=C(C)N(c2ccc(C)cc2)/C(=C/c2ccc(OC)cc2)C1=O	16	5.5
CN(CCc1ccccn1)C(=O)CC1(CC(=O)O)CCCC1	9	0.2
c1ccc(-c2cc(NCC3CC3)n3cnnc3n2)cc1	13	-0.5
O=C1C2C3C=CC(C3)C2C(=O)N1CCOCc1ccccc1 (stereo unspecified)	-3	-7.5

New compounds follow
SMILES	Sa helicase inh	MgrA-DNA mod
CCOC(=O)c1ccc(-c2ccc(/C=C3/C(=O)ON=C3C)o2)cc1	14	.
CCOc1cc(/C=C2\C(=O)Nc3ccc(Br)cc32)ccc1OCC(=O)O	16	16
N#CC1=C(N)c2ccccc2CC12CCCCC2	5	-1.5
CCCNC(=O)c1ccc(N2C(=O)c3ccccc3C2=O)cc1	-14	0.7
Cc1nc(SCC(=O)c2ccc(Cl)cc2)c(C#N)c(C)c1C	8	.
O=C(OC1CCOC1=O)c1cccnc1Nc1cccc(C(F)(F)F)c1 (stereo unspecified)	-13	.
O=C1/C(=C/C2CCCO2)CC/C1=C\C1CCCO1 (stereo unspecified)	-17	20
COc1ccc(C2NC(=O)Cc3cc(OC)c(OC)cc32)cc1 (stereo unspecified)	6	1.2
CCOc1cc(C2NC(=O)N(C)C(C)=C2C(=O)OCCc2ccccc2)cc(Br)c1O (stereo unspecified)	.	0.5
O=C(O)c1ccc(S(=O)(=O)Nc2ccc3oc4c(c3c2)CCCC4)cc1	11	.
O=C1CSC(=Nc2cccc(C(=O)O)c2)N1	1	-0.9
CCOc1ccc(C(=S)N(C)C)cc1	1	21
COC(=O)C1CC(O)CN1c1nc(-c2ccccc2)nc2ccccc12 (stereo unspecified)	-9	.
C=Cc1c(C)/c2[n-]/c1=C\c1[n-]c(c(CC)c1C)/C=c1\[n-]c3c(c1C)C(=O)C(C(=O)[O-])C=3c1[n-]c(c(C)c1CCC(=O)[O-])\C=2.[Cu].[Na+].[Na+] (stereo unspecified)	.	88*
CSc1nnc2c(n1)OC1(Nc3ccccc3-2)C(=O)Nc2ccc(Br)cc21 (stereo unspecified)	.	-0.7
CN(C(=O)COn1nnc2ccccc21)C1CCCCC1	-11	.
C=CCn1c(SCC(=O)N2CC(C)CC(C)C2)nc2ccccc2c1=O (stereo unspecified)	-12	.
COc1ccc2oc(=O)cc(O)c2c1	12	-7.2
CSc1nc(C)nc(-n2cccc2)c1C#N	.	-2.0
CC(C)(C)C(=O)Nc1nsc(-c2ccccc2)n1	8	.
O=C(O)c1cccc(/C=N/O)c1O	-5	.
CCN(C(=O)CSc1ncn[nH]1)c1ccccc1	-22	.
C=CCn1c(N2CCCC2)nc2c1c(=O)[nH]c(=O)n2C	8	2.6
COc1ccc(C(CC(=O)Nc2cc(OC)cc(OC)c2)n2cccc2)cc1 (stereo unspecified)	5	-0.8
NNC(=O)C(Sc1n[nH]c(=O)[nH]c1=O)c1ccccc1 (stereo unspecified)	6	-0.7
O=S(=O)(c1cccc(C(F)(F)F)c1)N1CCOCC1	-29	.
CCc1ccc(OCc2nc(-c3ccncc3)no2)c(Br)c1	6	.
Cc1c(C#N)c(N)nc(SCC(N)=O)c1C#N	11	.
Cc1ccc(-c2cc(C(=O)N(C)Cc3c(C)nn(C)c3C)c3cc(Br)ccc3n2)cc1	13	0.2
Cc1oc(C(=O)O)cc1CSC(C)C(=O)O (stereo unspecified)	-1	0.3
O=C(C[n+]1ccc(/C=N/O)cc1)Nc1ccc(C(=O)O)cc1	30	.
CC(C)(C)c1nc2sc3c(c2c(=O)o1)CCCC3	0	.
COc1ccc(/C=C2/SC(=O)N(CC(=O)NN3CCN(C)CC3)C2=O)cc1OC	.	0.7
O=C(O)c1[nH]c2ccccc2c1Br	-16	-1.6
COc1ccccc1NC(=O)COC(=O)C1(c2ccc(F)cc2)CCCC1	-5	1.2
CC1CCCC(C)N1CCC(=O)NN (stereo unspecified)	-2	.

An excerpt from further up, as a working copy:
SMILES	Sa helicase inh	MgrA-DNA mod
COc1ccc2oc(=O)cc(O)c2c1	12	-7.2
CSc1nc(C)nc(-n2cccc2)c1C#N	.	-2.0
CC(C)(C)C(=O)Nc1nsc(-c2ccccc2)n1	8	.
O=C(O)c1cccc(/C=N/O)c1O	-5	.
CCN(C(=O)CSc1ncn[nH]1)c1ccccc1	-22	.
C=CCn1c(N2CCCC2)nc2c1c(=O)[nH]c(=O)n2C	8	2.6
COc1ccc(C(CC(=O)Nc2cc(OC)cc(OC)c2)n2cccc2)cc1 (stereo unspecified)	5	-0.8
NNC(=O)C(Sc1n[nH]c(=O)[nH]c1=O)c1ccccc1 (stereo unspecified)	6	-0.7
O=S(=O)(c1cccc(C(F)(F)F)c1)N1CCOCC1	-29	.
CCc1ccc(OCc2nc(-c3ccncc3)no2)c(Br)c1	6	.
Cc1c(C#N)c(N)nc(SCC(N)=O)c1C#N	11	.
Cc1ccc(-c2cc(C(=O)N(C)Cc3c(C)nn(C)c3C)c3cc(Br)ccc3n2)cc1	13	0.2
Cc1oc(C(=O)O)cc1CSC(C)C(=O)O (stereo unspecified)	-1	0.3
O=C(C[n+]1ccc(/C=N/O)cc1)Nc1ccc(C(=O)O)cc1	30	.
CC(C)(C)c1nc2sc3c(c2c(=O)o1)CCCC3	0	.
COc1ccc(/C=C2/SC(=O)N(CC(=O)NN3CCN(C)CC3)C2=O)cc1OC	.	0.7

The list goes on.
SMILES	Sa helicase inh	MgrA-DNA mod
CCOC(=O)CSc1ncnc2c1oc1ccccc12	0	.
COc1cc(NS(=O)(=O)c2ccc3c(c2)CCN3C(=O)CCC(=O)O)c(C(=O)O)cc1OC	-24	.
O=C1C2C3C=CC(O3)C2C(=O)N1c1ccc(F)cc1 (stereo unspecified)	.	-6.2
Cc1noc(NS(=O)(=O)c2ccc(NC(=O)c3ccccc3)cc2)c1C	-10	.
COc1ccc(/C=C2/SC(=O)N(CCCC(=O)Nc3ccccc3O)C2=O)cc1	10	.
Cc1cc(C)cc(Oc2c(C)oc3c(CN4CCC(C)CC4)c(O)ccc3c2=O)c1	13	.
CC(N)CCCC(C)(C)O (stereo unspecified)	.	5.8&1.2
CCOC(Cn1c(-c2ccc(OC)cc2)nc2ccccc21)OCC	-2	.
C=CCc1ccccc1OCC(N)=O	3	-0.7
COC(=O)CCNc1n[nH]c(=O)[nH]c1=O	-2	.
COc1cccc(C(=O)Nc2ccc(S(=O)(=O)Nc3nc(C)cc(C)n3)cc2)c1	.	-1.1
COc1ccccc1-c1cc(=O)n(CC(=O)O)c2c1CCCC2	8	1.9
Cc1ccc(NC(=O)CN2C(=O)C3(OCCCO3)c3ccccc32)cc1C	13	.
CN(C)c1cccc(C(=O)OCc2cc(Cl)cc3c2OCOC3)c1	-15	.
CCC(C)c1ccccc1NC(=O)CNc1ccc(F)cc1 (stereo unspecified)	-17	1.6
Cc1nnc(SC2CCN(S(=O)(=O)c3cccc(C(F)(F)F)c3)CC2)s1	-7	.
CC(C)(C)C(O)Cn1c(=N)n(CCN2CCCCC2)c2ccccc21 (stereo unspecified)	9	0.9
CCN(CC)C(=O)c1sc(NC(=S)N2CCN(C(=O)c3ccco3)CC2)c(C(=O)OC)c1C	7	2.1
COc1cccc(NC(=S)N2CCCCC2)c1	-6	2.8
CC1Cc2ccccc2N1C(=O)CN(C)CC(=O)Nc1ccc(OC(F)(F)F)cc1 (stereo unspecified)	7	.
CC[n+]1c(C)sc2sc3ccccc3c21	12	13
CN(C(=O)CSc1nc2ncccc2[nH]1)c1ccccc1	-2	0.9
Cc1ccc(C(=O)OCC(=O)N2CC(C)OC(C)C2)cc1 (stereo unspecified)	-13	-1.0
Cc1oc2cc(OC(C)C(=O)O)ccc2c(=O)c1Oc1ccccc1 (stereo unspecified)	-9	.
CCN(CC(=O)NCc1ccc(F)cc1)C(=O)c1cc2ccccc2o1	-9	.
CCOC(=O)c1oc2ccccc2c1COC(=O)c1cccnc1SC	1	.
CN1CCN(c2nc3c(c(=O)n(C)c(=O)n3C)n2Cc2ccccc2Br)CC1	.	1.9
Cc1ccsc1CNCC(C)O (stereo unspecified)	12	.
Cn1c(COc2ccccc2)nc2ccccc21	-16	.
Cc1ccc(-c2cc(C(F)(F)F)nn2-c2ccc(S(N)(=O)=O)cc2)cc1	.	-7.8
